Screens: PubChem, several laboratories
CBX7 inh: CBX7 chromodomain binding inhibitors, primary screen, biochemical, AlphaScreen. actives 1.1% (n = 66,000). AID 1224903, 2016. normalised signal (fraction of DMSO) (concentration not given with the values). AlphaScreen His6-CBX7 / biotin-H3K27me3 peptide binding; stronger effect = lower value. Chromobox protein homolog 7 (Homo sapiens), O95931; in the data active means normalised signal below about 0.5;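 further: 100 nL library stock added to about 20 µL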
Target sequence (O95931 whole entry, looked up): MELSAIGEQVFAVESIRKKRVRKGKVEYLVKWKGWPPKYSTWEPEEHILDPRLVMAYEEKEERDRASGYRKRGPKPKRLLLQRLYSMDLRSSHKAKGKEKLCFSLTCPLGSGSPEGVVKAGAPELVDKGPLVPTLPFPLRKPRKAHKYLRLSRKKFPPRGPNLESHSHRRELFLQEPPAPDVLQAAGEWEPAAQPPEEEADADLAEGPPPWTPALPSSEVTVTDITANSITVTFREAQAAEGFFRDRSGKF
CBX7 inh z-score: further read-out of CBX7 inh, marked with its call; z-score; measured here: z-score of CBX7 signal; some inactives read as strong as hits; reference of the scale not given here;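 same signal on another scale; lower means less binding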
Active calls of the source: *; & = joins results of further samples.

Fields: CBX7 inh	CBX7 inh z-score
COc1ccc(N2CCN(CC(O)COc3ccccc3C(C)(C)C)CC2)cc1 (stereo not given)
 : 0.64	-12
Cc1nc2cc(-c3ccccc3)nn2c(C)c1CCC(=O)NCCCc1ccccc1
 : 0.82	-1.9
O=C(NCc1ccccc1)C1CCN(C(=O)c2cc3sccc3n2Cc2ccc(Cl)cc2)CC1
 : 0.96	-1.8
Cc1onc(-c2c(Cl)cccc2Cl)c1C(=O)N1CCN(c2ccccc2)CC1
 : 1	0.67
COc1ccc2cc(CCNC(=O)CC(C)C)c(=O)[nH]c2c1
 : 1.1	2.4
O=C(Nc1ccc(F)cc1Cl)c1n[nH]c(=O)c2ccccc12
 : 1.1	0.77
CCc1ccc(CNC(=O)CN2C(=O)CSc3ccc(S(=O)(=O)N4CCOCC4)cc32)cc1
 : 1	0.34
Cc1ccccc1-c1noc(COc2ccc(C(C)(C)C)cc2)n1
 : 1	0.54
Cc1c(Cl)cccc1NC(=O)c1cc(-c2cccc(Cl)c2)on1
 : 0.97	-0.48
Cc1cc(C)c2oc(-c3ccc(NC(=O)c4ccc(-c5ccc(Cl)cc5)o4)cc3)nc2c1
 : 0.98	-0.65
Cc1ccc2cccc(OCc3ccccc3)c2n1
 : 0.91	-0.35
O=C(NCc1ccccn1)c1ccc2c(c1)ncn2-c1ccc(F)cc1F
 : 0.95	-0.052
CCOc1ccc2nc(N3CCC(C(=O)N4CCN(c5cccc(C)c5C)CC4)CC3)sc2c1
 : 1	0.29
COC12C=CC(CC1=O)c1c(F)c(F)c(F)c(F)c12 (stereo not given)
 : 1.2	1.9
COc1ccccc1-n1nc(C(=O)N(C)c2ccc(Cl)cc2)c2ccccc2c1=O
 : 0.93	-0.99
CCC(C(=O)N1CCN(c2cccc(Cl)c2)CC1)n1ncc2ccccc21 (stereo not given)
 : 1.1	1.6
CN(C)CCCNc1oc(-c2ccc(Cl)cc2)nc1C#N
 : 1.6	6.3
O=C1CCc2cc(S(=O)(=O)N3CCC(C(=O)NCc4cccs4)CC3)ccc2N1
 : 0.89	-1.3
COc1ccc(-c2cc(C(=O)Nc3ccccc3C)c3ccccc3n2)cc1
 : 1.2	1.9
Cc1cc(C(=O)NCCCN=C2NS(=O)(=O)c3ccccc32)c2ccccc2n1
 : 1.6	1.1
CC(C)CCNC(=O)Cn1ncc2c1-c1ccccc1OC2
 : 0.98	-0.48
CC1(C)CC(C(CC(=O)O)c2ccccc2)CCO1 (stereo not given)
 : 1	0.015
COc1ccc(-c2nc(CSCC(=O)NCc3ccccc3Cl)c(C)o2)cc1OC
 : 1	0.48
Cc1cc(N2CCC(C)CC2)nc2ccc(NC(=O)CCC(=O)N3CCCC3)cc12
 : 0.89	-5
CCOc1ccc2nc(NC(=O)C3CCCN(S(=O)(=O)c4cccc5cccnc45)C3)sc2c1 (stereo not given)
 : 0.9	-1.6
CCC1=Nc2cc(C(=O)NCc3ccccc3)ccc2Sc2ccc(Cl)cc21
 : 1.1	2.2
O=C1c2ccccc2C(Nc2ccccc2Cl)N1c1cccnc1 (stereo not given)
 : 0.91	-1.5
Cc1c(C(=O)Nc2ccc3c(c2)OCCO3)sc2nc(-c3ccccc3)cn12
 : 0.99	-0.19
CCOc1ccc(NC(=O)c2cc(-c3ccccc3)nc3ccc(C)cc23)cc1
 : 1	0.35
CCCc1cc(-c2nc(-c3ccc(Cl)c(Cl)c3)cs2)ccn1
 : 1.5	1.6

Looked up by structure from above:
Fields: CBX7 inh	CBX7 inh z-score
Cc1cc(C)c2oc(-c3ccc(NC(=O)c4ccc(-c5ccc(Cl)cc5)o4)cc3)nc2c1
 : 0.98	-0.65
O=C(NCc1ccccn1)c1ccc2c(c1)ncn2-c1ccc(F)cc1F
 : 0.95	-0.052
CCC(C(=O)N1CCN(c2cccc(Cl)c2)CC1)n1ncc2ccccc21 (stereo not given)
 : 1.1	1.6
Cc1ccc2cccc(OCc3ccccc3)c2n1
 : 0.91	-0.35

The list goes on.
Fields: CBX7 inh	CBX7 inh z-score
CCOc1ccccc1NC(=O)c1c(NCc2ccccn2)sc2c1CCCC2
 : 0.88	-6.1
Cc1ccc(OCC(=O)Nc2c(C(=O)c3ccc(F)cc3)oc3ccccc23)cc1C
 : 1.4	1.4
Cc1cc(NC(=O)c2cc3n(n2)C(C(F)(F)F)CC(C2CC2)N3)no1 (stereo not given)
 : 1.1	0.73
CCOc1ccc(-c2cc(C(=O)NCc3ccccc3OCC)c3ccccc3n2)cc1
 : 1.1	0.62
Cc1cccc2c1-c1sc(C(=O)N3CCN(c4cccc(Cl)c4)CC3)cc1CO2
 : 1	1.4
CCOC(=O)c1oc2ccccc2c1NC(=O)c1ccc(S(=O)(=O)N2CCC(C)CC2)cc1
 : 1	-0.14
O=C(Nc1ccc(F)c(F)c1)c1cnc2ccccn2c1=O
 : 1	1.1
Cc1nnc(NC(=O)c2ccc(S(=O)(=O)N3CC(C)OC(C)C3)cc2)o1 (stereo not given)
 : 0.0066*	-1.3*
Cc1ccc(-c2nnc(-c3cccc(S(=O)(=O)N4CCOCC4)c3)o2)cc1
 : 0.96	-0.34
COc1ccc(C(=O)Nc2cccc(-c3nc4ncccc4o3)c2C)cc1Cl
 : 1.1	1.2
CC1CCN(c2nc3ccc(C(=O)NCCCN4CCN(Cc5ccccc5)CC4)cc3s2)CC1
 : 1.5	4.9
CCN1C(=O)C2C(c3ccccc3O)NC(CCSC)(C(=O)O)C2C1=O (stereo not given)
 : 0.98	-0.8
CC(C)NC(=O)c1ccc(-c2nn(C)c(=O)c3ccccc23)cc1
 : 0.99	-0.16
COc1nc(-c2ccc(Cl)cc2)nc2ccccc12
 : 1.1	3.4
CSc1cccc(Nc2cc(C(=O)NC3CCCC3)c3ccccc3n2)c1
 : 1.2	4.7
CC(C)NC(=O)c1cc(-c2ccncc2)nc2ccc(S(=O)(=O)N3CCOCC3)cc12
 : 1	0.39
CCCCNS(=O)(=O)c1ccc2nc(-c3cccnc3)cc(C(=O)NCCN3CCCC3)c2c1
 : 1.1	2.2
CCOC(=O)C1CCCN(c2c(N3CCN(c4cccc(OC)c4)CC3)c(=O)c2=O)C1 (stereo not given)
 : 0.94	-1.3
COc1ccc(CN2C(=O)N(c3ccc(F)cc3)C(=O)C2CC(=O)Nc2ccccc2)cc1OC (stereo not given)
 : 0.97	-0.066
O=C(Nc1nccs1)C1CC2c3ccccc3C1c1ccccc12 (stereo not given)
 : 0.93	-1.2
COc1ccc(CNC(=O)c2c(O)c3ccccc3n(C)c2=O)cc1
 : 1.1	0.64
O=C(Nc1ccc(Cl)cc1Cl)c1cnn2cccnc12
 : 0.99	-0.087
NS(=O)(=O)c1ccc(NC(=O)CSc2nc3ccccc3[nH]2)cc1
 : 0.9&1	-1.6&0.18
Cc1ccc(CN2C(=O)N(c3ccccc3)C(=O)C2CC(=O)Nc2ccccc2)cc1 (stereo not given)
 : 1	1
Clc1ccc(-c2noc(-c3ccc(-c4ccccc4)cc3)n2)cc1
 : 1.1	0.56
Cc1ccc(S(=O)(=O)CCc2nc3ccccc3[nH]2)cc1
 : 0.99	-0.34
CCCCCCn1c(C2CC(=O)N(c3ccccc3)C2)nc2ccccc21 (stereo not given)
 : 0.81	-0.81
COC(=O)CN(c1nc(C)cc(OC)n1)S(=O)(=O)c1ccccc1
 : 1	0.68
Cc1ccc(Nc2nnc(-c3ccc(C)c(S(=O)(=O)N4CCOCC4)c3)c3ccccc23)cc1
 : 0.97	-0.92
COc1cc(-c2nnc(COc3ccc4ccccc4c3)o2)cc(OC)c1OC
 : 1.2	3.5
c1ccc(-c2noc(CN3CCN(C(c4ccccc4)c4ccccc4)CC3)n2)cc1
 : 1.4	2.8
O=C(c1ccc2c(c1)N(Cc1ccc(F)cc1)C(=O)CS2)N1CCOCC1
 : 0.83	-1.8
Cc1ccc(-c2nc(C#N)c(N3CCOCC3)o2)cc1
 : 0.89	-1.4
Cc1ccc(NC(=O)CC2Oc3ccc(C)cc3NC2=O)cc1 (stereo not given)
 : 1	1.4
Cc1ccc2nc(-c3ccc(C)c(NC(=O)c4ccc5c(c4)OCCO5)c3)oc2c1
 : 1.1	2.7
Cc1nccc2[nH]c(=O)c(C(=O)NCCC(C)C)cc12
 : 0.97	-0.63
O=C(/C=C/c1ccccc1)Nc1nc(-c2ccccc2)cs1
 : 0.99	-0.074
CCOc1ccc2nc(N3CCCC(C(=O)Nc4ccc(C)cc4C)C3)sc2c1 (stereo not given)
 : 1	0.25
O=C(Nc1ccc(F)cc1)C(Cc1ccccc1)NS(=O)(=O)c1cccc2cccnc12 (stereo not given)
 : 1.1	1.1
COc1ccc2nc(NC(=O)C3CCN(S(=O)(=O)c4cccs4)CC3)sc2c1
 : 1.1	1.2
Cc1cccc(C)c1Nc1c(-c2ccsc2)nc2ccc(Cl)cn12
 : 1.1	0.14
O=C(Nc1ccc(-c2csc(-c3ccccc3)n2)cc1)c1ccccc1Cl
 : 0.98	-0.62
CCOC(=O)N1CCC(NC(=O)CS(=O)(=O)Cc2nc(-c3ccccc3C)oc2C)CC1
 : 0.95	-0.42
CCOC(=O)c1sc2nc(C)nc(N(C)C3CCCCC3)c2c1C
 : 1.1	5
Cc1c(C(=O)NCCN2CCOCC2)oc2ccc(S(=O)(=O)N3CCOCC3)cc12
 : 1	1.2
CCOc1nn(-c2ccccc2)c(NC2CCCCC2)c1C(F)(F)F
 : 1.2&1.2	6.2&4.5
NC(=O)C1CCN(C2CC(=O)N(c3cccc(Cl)c3)C2=O)CC1 (stereo not given)
 : 0.83	-2.7
O=C(Nc1nnc(-c2ccccc2Cl)o1)c1ccc(S(=O)(=O)N2CCOCC2)cc1
 : 0.052*	-4.2*
Cn1c(=O)[nH]c(=O)c2c1nc(CN1CCOCC1)n2CCc1ccccc1
 : 1	1.5
CCOC(=O)c1c(C)n(-c2ccc(C)cc2)c2ccc(OCC(O)Cn3c(C)nc4ccccc43)cc12 (stereo not given)
 : 0.7	-6.1
O=C(NCCCN1CCOCC1)c1ccc2c(c1)ncn2C1CCCC1
 : 0.98	-0.62
COc1cccc(CNC(=O)CCCn2c(=O)[nH]c3ccccc3c2=O)c1
 : 1.1	0.23
O=C1CN(C(=O)c2ccccc2C(F)(F)F)C(c2ccccc2)c2cc(F)ccc2N1 (stereo not given)
 : 1	0.014
O=C(Nc1ccccc1)c1cccc(NC2=NC3CS(=O)(=O)CC3S2)c1 (stereo not given)
 : 1	0.48
Cc1cc(C)cc(OC(C)C(=O)Nc2c(C(=O)c3ccccc3)oc3ccccc23)c1 (stereo not given)
 : 1.5	1.8
Cc1ccccc1Cc1c(C)nc2nc(SCC(=O)NCCCN3CCCCC3)nn2c1C
 : 1	0.019
CCOC(=O)c1cnc2ccc(Cl)cc2c1Nc1ccccc1OC
 : 1	0.19
COc1ccc(-c2[nH]c(C3CCCCC3)nc2-c2ccccc2)cc1
 : 0.67	-0.33
Cc1cccc(N2C(=O)N(c3ccccc3C)C3CS(=O)(=O)CC32)c1 (stereo not given)
 : 1	-0.024
Clc1ccc2nc(-c3ccccc3)c(Nc3ccc4c(c3)OCCO4)n2c1
 : 1.1	1.2

Another view of part of the listing above:
O=C(Nc1ccc(-c2csc(-c3ccccc3)n2)cc1)c1ccccc1Cl
  CBX7 inh: 0.98	CBX7 inh z-score: -0.62

CCOC(=O)N1CCC(NC(=O)CS(=O)(=O)Cc2nc(-c3ccccc3C)oc2C)CC1
  CBX7 inh: 0.95	CBX7 inh z-score: -0.42

CCOC(=O)c1sc2nc(C)nc(N(C)C3CCCCC3)c2c1C
  CBX7 inh: 1.1	CBX7 inh z-score: 5

(continued)
Fields: CBX7 inh	CBX7 inh z-score
CCOC(=O)N1CCC(N2Cc3cccc(C(=O)Nc4ccc(CN5CCCC5)cc4)c3C2=O)CC1
 : 1.3	4.9
CC(=O)Nc1nc(-c2ccc(-c3ccccc3)cc2)c(C)s1
 : 0.99	-0.21
O=c1cc(N2CCN(c3ccc(F)cc3)CC2)[nH]c(=O)n1Cc1ccc(F)cc1
 : 0.91	-1.6
Cc1ccc(Nc2nnc(-c3ccc(C)c(S(=O)(=O)NCCO)c3)c3ccccc23)cc1
 : 0.9	-2.7
Cc1cc(C(=O)Nc2ccc(F)c(Cl)c2)on1
 : 0.99	-0.25
COc1cccc(C(=O)NC(C)C(c2cccs2)N2CCOCC2)c1OC (stereo not given)
 : 0.99	-0.28
CCOc1nc(-c2ccncc2)nc2ccccc12
 : 1.1	1.4
COc1ccc(/C=C(\C)c2nc(C)c(-c3ccccc3)c(=O)[nH]2)cc1
 : 1	1.3
CCOCCCNC(=O)c1c[nH]c2ccc(S(=O)(=O)Nc3cccc(SC)c3)cc2c1=O
 : 1.1	2.2
COc1ccc(N2C(=O)C(CC(=O)Nc3ccccc3)N(C(C)C)C2=O)cc1 (stereo not given)
 : 1	2
O=C(Nc1sc2c(c1C(=O)NCc1cccnc1)CCCCC2)c1cccnc1
 : 1	0.35
COc1cc(Cl)c(C)cc1NC(=O)CCc1nc(-c2ccc(C)cc2)no1
 : 0.98	-0.57
O=C(Nc1cnn(Cc2ccc(Cl)cc2Cl)c1)c1cc(-c2ccc3c(c2)OCO3)on1
 : 1	1.2
COc1ccc(OC)c(CNC(=O)C2CCC(=O)N2C(C)C)c1 (stereo not given)
 : 1	0.26
CCn1c(C(=O)Nc2ccccc2C)cc2sc(Cl)cc21
 : 1	1.4
CCN1CCN(c2cc(C)c3cc(NC(=O)c4ccccn4)ccc3n2)CC1
 : 0.94	-0.4
COc1ccc(-c2nc3ccccc3o2)cc1NC(=O)c1ccc(C(C)C)cc1
 : 1.2	1.4
O=C(Nc1ccccc1C(=O)O)c1cc(S(=O)(=O)N2CCCC2)ccc1Cl
 : 0.96	-0.67
O=C1CC(c2cccnc2)c2cc3c(cc2N1)OCCO3 (stereo not given)
 : 0.92	-0.99
Cc1ccc(Nc2c(-c3ccc(N4CCOCC4)cc3)nc3nc[nH]n23)cc1
 : 0.75	-2.9
COc1cccc(-c2cc(C(=O)Nc3ccc(OC)c(OC)c3)no2)c1
 : 1	0.033
COC(=O)c1cccc(C(=O)Nc2cnc3ccccc3c2)n1
 : 1	0.49
COC(=O)c1ccc(Oc2nc(-c3cccnc3)nc3ccccc23)cc1
 : 0.97	-0.68

This is a subset; the hit share may differ from the screen's.
